Bioassay records deposited in PubChem by Broad Institute.
DUX4 inh: blocks DUX4-driven transcriptional activation; AID 1224904; 37,000 compounds, 0.8% hits; 293T-iDUX4 ZSCAN4-Gaussia luciferase reporter, 24 h; active compounds read low; activity change, negative = inhibition, % (no concentration beside the values);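 active means -10% or lower and over 25 points stronger than a control reporter; inconclusive means -10% or lower with a smaller gap; inactive means above -10%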;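 further: 0% = median of neutral control wells and -100% = median of positive control wells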
DUX4 inh difference: recorded beside DUX4 inh, whose call it bears; Gaussia minus Italica difference, %; measured here: selective DUX4 reporter inhibition;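 worked out from the two reporters; negative = selective loss of the DUX4 reporter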
DUX4 inh control: also measured in DUX4 inh; calls as there; activity change, negative = inhibition, %; measured here: Italica tet-on control reporter;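 0 = neutral control and -100 = positive control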
Numbers without * were called inactive; ? = inconclusive; · = no result given; & = joins results of further samples.

no.	Compound	DUX4 inh	DUX4 inh difference	DUX4 inh control
1	CCCNC(=O)N1CC2(CCN(C(=O)c3cccc(F)c3)CC2)c2c([nH]c3cc(OC)ccc23)[C@H]1CO	4.2	15.9	-11.6
2	COc1ccc(NC(=O)N(C)C[C@H]2Oc3ncc(-c4cccnc4)cc3C(=O)N([C@H](C)CO)C[C@H]2C)cc1	-2.3	-1.9	-0.5
3	CNC[C@@H]1Oc2ccc(NS(=O)(=O)c3ccc(OC)cc3)cc2C(=O)N([C@@H](C)CO)C[C@@H]1C	-3.5	-2.1	-1.4
4	COc1ccc(NC(=O)N(C)C[C@H]2Oc3ccc(N(C)C)cc3C(=O)N([C@@H](C)CO)C[C@H]2C)cc1	-0.4	-0.4	0.0
5	O=C(CC(F)(F)F)N1C[C@@H]2[C@H](c3ccccc31)[C@H](CO)N2C(=O)Cc1cccnc1	-0.3	-6.9	6.6
6	COCC(=O)Nc1ccc2c(c1)OC[C@H](C)N(Cc1ccncc1)C[C@H](C)[C@@H](OC)CN(C)C2=O	11.4	3.8	7.6
7	COc1cccc(-c2ccc3c(c2)[C@@H]2[C@@H](CCN2S(=O)(=O)c2ccc(F)cc2)[C@@H](CO)N3C)c1	?	·	·
8	COc1cccc(S(=O)(=O)N2C[C@H](O)COC[C@H]3O[C@@H](CC(=O)N4CCOCC4)CC[C@@H]32)c1	12.9	11.7	1.1
9	COc1ccc(CN2C[C@@H](O)COC[C@H]3O[C@@H](CC(=O)NCCN4CCCC4)CC[C@@H]32)cc1	-1.1	-1.3	0.2
10	COc1ccc2c3c(n(C)c2c1)[C@@H](CO)N(C(=O)Nc1ccc(F)cc1)CC31CN(C(=O)NC2CCCC2)C1	5.7	2.3	3.4
11	C/C=C/c1ccc([C@@H]2[C@H](CO)N(Cc3cncnc3)C23CN(C(=O)CC2CC2)C3)cc1	3.5	3.5	0.0
12	CCCC#Cc1ccc([C@H]2[C@H](CO)N3C(=O)CN(C(=O)NCCC)C[C@@H]23)cc1	11.1	3.2	7.9
13	C[C@@H](NC(=O)C[C@@H]1C=C[C@H](NC(=O)c2cccnc2)[C@@H](CO)O1)c1ccccc1	-1.7	1.2	-3.0
14	N#Cc1ccc(-c2ccc(C3[C@@H]4CN(C(=O)c5ccncc5)C[C@H]3N4)cc2)cc1 (stereo partly specified)	-5.9&-1.3	-16.7&-0.3	10.8&-1.0
15	CO[C@H]1CC[C@@H]2CCOc3ccc(C#N)cc3C(=O)N(C)CCCC(=O)N(C)C[C@@H]1O2	-3.7	-0.3	-3.4
16	CN(C)CCCNC(=O)C[C@H]1C=C[C@H](NC(=O)Cc2cccnc2)[C@H](CO)O1	17.7	11.7	6.0
17	COCC(=O)N1CC2(CCN(S(C)(=O)=O)CC2)c2c(n(C)c3cc(OC)ccc23)[C@@H]1CO	8.7	7.4	1.3
18	COc1ccc(S(=O)(=O)N[C@H]2CC[C@H](CC(=O)O)O[C@@H]2CO)cc1	1.2	-1.8	3.1
19	C[C@H]1CN([C@@H](C)CO)C(=O)c2ccccc2-c2ccccc2CO[C@@H]1CN(C)S(=O)(=O)c1cccs1	-0.6	-1.5	0.9
20	O=C(Nc1ccc(Cl)c(Cl)c1)N[C@H]1CC[C@@H](CCNC(=O)c2ccc(F)cc2)O[C@@H]1CO	-4.8	0.2	-5.1
21	COc1cccc(-c2ccc(C3[C@H]4CNC[C@@H]3N4Cc3ccc(F)cc3)cc2)c1 (stereo partly specified)	5.4&-1.6	2.7&-29.5	2.6&27.9
22	O=C(N[C@H]1C=C[C@@H](CC(=O)N2CCc3ccccc3C2)O[C@H]1CO)C1CCC1	1.7	1.8	-0.1
23	N#C[C@@H]1[C@H](c2ccc(C3=CCCCC3)cc2)[C@H](CO)N1C(=O)C1CCOCC1	-0.9	-0.5	-0.4
24	Cn1cnc(S(=O)(=O)N2C[C@H](O)COC[C@H]3O[C@H](CC(=O)NCc4cc(F)cc(F)c4)CC[C@@H]32)c1	16.3	2.4	13.9
25	CN(C)C(=O)C[C@@H]1CC[C@@H](NC(=O)C2CCOCC2)[C@@H](CO)O1	3.0	4.9	-1.9
26	Cc1noc(C)c1S(=O)(=O)N(C)C[C@H]1Oc2c(NC(=O)c3ccc(-c4nccs4)cc3)cccc2C(=O)N([C@@H](C)CO)C[C@H]1C	3.0	2.5	0.5
27	CO[C@H](CN(C)Cc1cc(F)ccc1F)[C@@H](C)CN([C@H](C)CO)S(=O)(=O)c1ccc(Cl)cc1	2.2	2.5	-0.2
28	COCC(=O)N1CCC2(CC1)CN[C@@H](CO)c1c2c2ccc(OC)cc2n1C	9.3	17.7	-8.4
29	O=C(NCc1ccccc1)[C@@H]1[C@@H](CO)[C@@H]2Cn3c(cccc3=O)[C@@H]2N1C(=O)C1CC1	-0.1	-0.9	0.8
30	O=C(C[C@H]1CC[C@@H]2[C@H](COC[C@H](O)CN2C(=O)Nc2ccccc2)O1)NCCc1ccncc1	14.4	12.4	2.0

Record cards, from the list above. Screens in order: DUX4 inh | DUX4 inh difference | DUX4 inh control
`O=C(N[C@H]1C=C[C@@H](CC(=O)N2CCc3ccccc3C2)O[C@H]1CO)C1CCC1` is entered as 1.7 | 1.8 | -0.1
`COc1ccc(NC(=O)N(C)C[C@H]2Oc3ncc(-c4cccnc4)cc3C(=O)N([C@H](C)CO)C[C@H]2C)cc1` is entered as -2.3 | -1.9 | -0.5
`COc1ccc(CN2C[C@@H](O)COC[C@H]3O[C@@H](CC(=O)NCCN4CCCC4)CC[C@@H]32)cc1` is entered as -1.1 | -1.3 | 0.2
`CN(C)CCCNC(=O)C[C@H]1C=C[C@H](NC(=O)Cc2cccnc2)[C@H](CO)O1` is entered as 17.7 | 11.7 | 6.0
`COCC(=O)N1CCC2(CC1)CN[C@@H](CO)c1c2c2ccc(OC)cc2n1C` is entered as 9.3 | 17.7 | -8.4

Remaining list, next part:
no.	Compound	DUX4 inh	DUX4 inh difference	DUX4 inh control
31	O=C(C[C@@H]1CC[C@@H]2[C@H](COC[C@H](O)CN2C(=O)c2ccncc2)O1)NCc1cccc(F)c1	9.1	6.5	2.6
32	O=C1CN(S(=O)(=O)c2cccc(F)c2)C[C@@H]2[C@@H](c3ccc(C4=CCCC4)cc3)[C@H](CO)N12	-0.9	6.2	-7.1
33	C[C@@H](NC(=O)C[C@@H]1C=C[C@@H](NC(=O)CN2CCOCC2)[C@H](CO)O1)c1ccccc1	-5.5	-9.2	3.7
34	O=C(c1ccc2c(c1)OCO2)N1C[C@H]2[C@@H](c3ccccc31)[C@H](CO)N2CC1CCCC1	-4.2	-1.7	-2.5
35	CC=Cc1ccc2n(c1=O)C[C@@H]1[C@@H](CO)[C@H](C(=O)Nc3ccc(-c4ccccc4)cc3)[C@H]2N1CC (mixture of isomers)	?	·	·
36	N#Cc1ccc(-c2ccc([C@@H]3[C@@H](CO)N4C(=O)CN(C(=O)Cc5ccccc5)C[C@H]34)cc2)cc1	6.0	-1.2	7.2
37	CCS(=O)(=O)N1CCCCN2[C@H](C1)[C@@H](c1ccc(C#Cc3ccccn3)cc1)[C@@H]2CO	11.1	8.1	3.0
38	C[C@H](CO)N1C[C@H](C)[C@@H](CN(C)Cc2ccc(C(=O)O)cc2)OCCCC[C@H](C)Oc2ccc(N(C)C)cc2C1=O	2.8	0.6	2.2
39	CN(C)CC#Cc1ccc([C@@H]2[C@@H](CO)N3C(=O)CN(C(=O)Cc4cccnc4)C[C@@H]23)cc1	7.7	-6.6	14.4
40	CC=Cc1ccc2n(c1=O)C[C@H]1[C@H](CO)[C@@H](C(=O)OC)N(C(C)=O)[C@@H]21 (mixture of isomers)	-2.4	-7.5	5.1
41	C/C=C/c1ccc([C@@H]2[C@@H](CNC(C)=O)N(C(=O)Cc3cccnc3)[C@H]2CO)cc1	0.1	3.2	-3.0
42	COc1ccccc1-c1ccc2c(c1)[C@@H]1[C@@H](CCN1C(=O)c1ccncc1)[C@@H](CO)N2	6.4	10.9	-4.5
43	O=C(Cc1ccccc1)NC[C@H]1N[C@H](CO)[C@@H]1c1ccc(C2=CCCC2)cc1	-0.6	-2.3	1.7
44	C[C@H](NC(=O)[C@H]1[C@H](CO)[C@H]2Cn3c(cccc3=O)[C@@H]1N2CCC(F)(F)F)c1ccccc1	-2.1	-0.6	-1.5
45	C[C@H]1CN([C@@H](C)CO)C(=O)Cc2cc(NC(=O)C3CCCCC3)ccc2O[C@@H]1CN(C)S(=O)(=O)c1ccc(F)cc1	0.0	1.8	-1.9
46	N#C[C@@H]1[C@H](c2ccccc2C2=CCCCC2)[C@H](CO)N1C(=O)c1ccccn1	0.8	3.4	-2.6
47	COc1ccc2c3c([nH]c2c1)[C@@H](CO)N(C(=O)CN(C)C)CC31CN(Cc2ccccc2Cl)C1	?	·	·
48	COc1ccc(-c2ccc([C@H]3[C@@H](CO)N4C(=O)CN(C(=O)NC(C)C)C[C@H]34)cc2)cc1	5.0	1.6	3.4
49	C[C@H]1CN([C@@H](C)CO)C(=O)CCCn2nncc2CO[C@@H]1CN(C)C(=O)C1CCCCC1	-0.8	-1.3	0.5
50	O=C(NCC[C@@H]1CC[C@H](NC(=O)c2cnccn2)[C@H](CO)O1)c1ccc2c(c1)OCO2	-0.1	0.0	-0.1

Later entries.
Every second line gives: DUX4 inh, DUX4 inh difference, DUX4 inh control
(51) CN1CCCCN2[C@@H](CO)[C@H](c3ccc(-c4cccnc4)cc3)[C@@H]2C1
 : 14.2, 18.0, -3.8
(52) COc1cccc(-c2ccc([C@@H]3[C@H](C#N)N(C(=O)Cc4ccccc4)[C@H]3CO)cc2)c1
 : -5.4, -3.0, -2.5
(53) C[C@H](CO)N1C[C@H](C)[C@H](CN(C)C(=O)Nc2ccc3c(c2)OCO3)Oc2cc(C#Cc3cccnc3)ccc2S1(=O)=O
 : -3.3, -1.9, -1.4
(54) CC(C)NC(=O)Nc1ccc2c(c1)C(=O)N([C@H](C)CO)C[C@@H](C)[C@H](CN(C)S(=O)(=O)c1ccc(F)cc1)OCCCC[C@H](C)O2
 : 5.4, 4.8, 0.7
(55) C[C@@H]1CCCCO[C@H](CN(C)C(=O)Nc2ccc(C(F)(F)F)cc2)[C@@H](C)CN([C@H](C)CO)C(=O)c2cc(NS(=O)(=O)c3cn(C)cn3)ccc2O1
 : -1.0, -1.1, 0.1
(56) CCS(=O)(=O)N1[C@H](C#N)[C@@H](c2ccc(C3=CCCCC3)cc2)[C@H]1CO
 : 2.9, 3.3, -0.4
(57) COC(=O)C[C@@H]1C[C@@H]2c3cc(N(C)C)ccc3O[C@@H]2[C@H](CO)O1
 : 5.4, -7.2, 12.5
(58) C[C@@H](NC(=O)C[C@H]1CC[C@H]2[C@@H](COC[C@@H](O)CN2C(=O)Nc2cccc(Cl)c2)O1)c1ccccc1
 : 3.1, -0.3, 3.5
(59) CC=Cc1ccc2n(c1=O)C[C@@H]1[C@@H](CO)[C@H](C(=O)N3CCc4ccccc4C3)N(C(=O)COC)[C@H]21 (mixture of isomers)
 : -2.2, -3.9, 1.8
(60) CCNC(=O)[C@@H]1[C@@H](CO)[C@@H]2Cn3c(ccc(-c4cccc(F)c4)c3=O)[C@H]1N2C(=O)c1ccccn1
 : 5.5, 1.0, 4.5
(61) C[C@H](CO)N1C[C@H](C)[C@H](CN(C)C(=O)C2CC2)Oc2cc(Br)ccc2S1(=O)=O
 : -1.0, -1.3, 0.3
(62) CC(C)NC(=O)N1[C@H](CO)[C@H](c2ccccc2)C12CN(C(=O)Cc1ccccc1)C2
 : -2.0, 13.1, -15.1
(63) COc1ccc2c3c([nH]c2c1)[C@@H](CO)N(Cc1ccncc1)CC31CCN(C(=O)CN(C)C)CC1
 : 8.2, 13.4, -5.2
(64) CNC[C@@H]1Oc2cc(C#CCC3CCCC3)ccc2S(=O)(=O)N([C@@H](C)CO)C[C@@H]1C
 : -0.6, -2.7, 2.2
(65) O=C(NC[C@H]1N[C@H](CO)[C@H]1c1ccccc1)c1ccccc1F
 : -3.9, -2.8, -1.0
(66) C[C@@H]1CN([C@@H](C)CO)C(=O)c2c(c3ccccc3n2C)-c2ccccc2CO[C@@H]1CN(C)C(=O)c1cc(Cl)cc(Cl)c1
 : -42.2*, -28.9*, -13.3*
(67) COc1ccccc1S(=O)(=O)N[C@@H]1C=C[C@@H](CC(=O)N2CCOCC2)O[C@H]1CO
 : -3.8, -6.5, 2.7
(68) O=C(C[C@H]1CC[C@H]2[C@@H](COC[C@H](O)CN2C(=O)c2cccnc2)O1)NCC1CC1
 : 6.0, 4.5, 1.5
(69) C[C@@H]1CN([C@H](C)CO)C(=O)c2c(c3ccccc3n2C)-c2ccccc2CO[C@H]1CN(C)S(=O)(=O)c1cn(C)cn1
 : 28.7, 16.8, 11.9
(70) CNC[C@H]1Oc2ccc(NC(=O)Cc3cn(C)c4ccccc34)cc2C(=O)N([C@H](C)CO)C[C@@H]1C
 : -2.6, -5.4, 2.8
(71) C[C@@H]1COCn2nncc2CC[C@@H](Cc2ccc(Cl)cc2)C(=O)N1
 : 2.8, -1.2, 4.0
(72) CN(C)CC(=O)Nc1ccc2c(c1)[C@@H]1C[C@H](CC(=O)N3CCCCC3)O[C@H](CO)[C@@H]1O2
 : 9.4, 4.9, 4.4
(73) N#C[C@@H]1[C@@H](c2ccccc2-c2ccccc2F)[C@@H](CO)N1C(=O)C1CCOCC1
 : 13.6, 11.2, 2.4
(74) COCC(=O)N1C[C@@H]2[C@H](c3ccccc31)[C@@H](CO)N2C(=O)c1ccncc1
 : 1.8, -0.5, 2.3
(75) COc1ccc2c3c(n(C)c2c1)[C@H](CO)N(C(C)=O)CC31CCN(C(=O)Nc2ccccc2F)CC1
 : 6.5, -8.5, 15.0

This is a subset; rates above refer to the full screens.
